KCNQ2 block – KCNQ2 potassium channel inhibitors, primary screen, cell-based, CHO-K1, FluxOR thallium flux, B-score (AID 2156). 310,000 compounds, 1.1% hits. B-score at 10 µM. 20 min; stronger effect = lower value; only compounds with negative scores are shown here; some inactives read as strong as hits;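 active = fluorescence ratio B-score at most minus 3 library SDs, with starting brightness B-score within 2 library SDs, cut at about -5.5 in these data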
Target sequence (O88943 whole entry, looked up): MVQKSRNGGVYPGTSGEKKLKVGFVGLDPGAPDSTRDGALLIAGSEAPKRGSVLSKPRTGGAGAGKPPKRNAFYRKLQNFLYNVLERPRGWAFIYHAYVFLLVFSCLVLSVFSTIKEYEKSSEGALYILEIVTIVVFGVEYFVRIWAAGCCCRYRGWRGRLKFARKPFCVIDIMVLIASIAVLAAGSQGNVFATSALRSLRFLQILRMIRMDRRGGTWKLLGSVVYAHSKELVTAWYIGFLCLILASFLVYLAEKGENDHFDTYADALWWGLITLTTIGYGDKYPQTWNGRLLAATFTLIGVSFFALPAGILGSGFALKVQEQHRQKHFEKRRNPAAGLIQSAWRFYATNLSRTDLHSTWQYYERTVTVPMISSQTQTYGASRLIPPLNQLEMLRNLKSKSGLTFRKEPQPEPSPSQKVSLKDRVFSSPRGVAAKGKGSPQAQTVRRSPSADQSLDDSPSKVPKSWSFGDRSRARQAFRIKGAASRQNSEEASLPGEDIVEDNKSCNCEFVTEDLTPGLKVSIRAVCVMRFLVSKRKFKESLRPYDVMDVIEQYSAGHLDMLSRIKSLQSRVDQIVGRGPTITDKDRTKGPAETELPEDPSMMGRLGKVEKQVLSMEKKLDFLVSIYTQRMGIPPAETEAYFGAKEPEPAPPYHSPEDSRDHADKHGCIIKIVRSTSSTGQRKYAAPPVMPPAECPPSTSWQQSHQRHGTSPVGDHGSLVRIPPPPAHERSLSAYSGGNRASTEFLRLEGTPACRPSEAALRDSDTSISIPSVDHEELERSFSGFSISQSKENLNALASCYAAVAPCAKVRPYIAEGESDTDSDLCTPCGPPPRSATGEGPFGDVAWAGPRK
KCNQ2 block baseline – also measured in KCNQ2 block; calls as there; B-score; measured here: initial fluorescence intensity artifact check;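 brightness before thallium and not channel activity; 0 = typical well and far values either way flag optical interference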
Active calls of the source: *; i = inactive.

| canonical_smiles | KCNQ2 block | KCNQ2 block baseline |
| --- | --- | --- |
| O=C(O)C1CCCCC1C(=O)NCc1ccc(Cl)c(Cl)c1 (configuration not stated) | i | 1.2 |
| Cn1c(N2CCCC2)nc2c1c(=O)n(Cc1ccc(Cl)cc1)c(=O)n2C | i | -1.1 |
| O=C(CN1CCN(S(=O)(=O)c2ccccc2)CC1)Nc1ccc(Cl)c(Cl)c1 | i | -1.3 |
| COCc1cc(=O)[nH]c(SCC(=O)c2ccccc2)n1 | i | 0.85 |
| CCOC(=O)C1CCCN(S(=O)(=O)c2c(C)noc2C)C1 (configuration not stated) | i | -0.07 |
| COc1ccccc1NC(=S)NCc1ccc2c(c1)cc(C)n2C | i | 1.2 |
| COCC(=O)N/N=C\c1ccccc1OC/C=C/c1ccccc1 | i | -0.51 |
| O=C(Cn1c(C(=O)N2CCN(C3CCCC3)CC2)cc2sccc21)c1ccccc1 | i | -0.79 |
| Cc1cc(C)nc(SCC(=O)N/N=C/c2ccc3c(c2)OCO3)n1 | i | 0.82 |
| COc1ccccc1CNS(=O)(=O)c1ccc2c(c1)NC(=O)CO2 | i | 2.4 |
| Cc1nnc(SCC(=O)Nc2nc(-c3ccccc3)cs2)n1N | i | 1.5 |
| Cc1cc(/C=C2\SC(=Nc3ccc(N4CCOCC4)cc3)N(C)C2=O)c(C)n1-c1cccnc1 | i | -0.2 |
| Cc1cccc(NCc2cccc3ccccc23)n1 | -5.9* | 0.16* |
| COc1ccc(Cc2nnc(NC(=O)C3CC(=O)N(c4ccccc4C)C3)s2)cc1OC (configuration not stated) | i | 0.28 |
| CN1CCN(CCC(=O)N/N=C/c2ccccc2F)CC1 | i | -0.01 |
| COc1ccc(NC(=O)c2sc3nc(N4CCOCC4)c4c(c3c2N)CC(C(C)C)OC4)c(OC)c1 (configuration not stated) | i | 2.5 |
| COc1ccc(C(OCC(O)CNC(C)c2ccccc2)c2ccc(OC)cc2)cc1 (configuration not stated) | i | 2.4 |
| O=C(NCc1ccco1)c1ccc2c(c1)N(Cc1ccccc1)CCS2 | i | -1.8 |
| CC(C)Cc1[nH]c(=O)c(C#N)c2c1CCCC2 | i | -1.4 |
| O=C(Nc1cccc(-c2cccc(F)c2)c1)C1CCN(CC2CCOC2)CC1 (configuration not stated) | i | -0.6 |
| O=C(CSc1ccc([N+](=O)[O-])cc1)NNC(=O)c1ccccc1F | i | -0.49 |
| C(=C\c1ccccc1)/CSc1nnc(-c2ccccn2)n1Cc1ccco1 | -5.8* | 1.1* |
| C#CCOC(=O)C(NC(=O)c1ccccc1)=C1CCCCC1 | i | 0.47 |
| COC(=O)Cc1ccc(N(Cc2ccccc2F)S(=O)(=O)c2ccc(C)cc2)cc1 | -6.6* | 0.57* |
| COc1ccccc1OCc1ccc(C(=O)OCC2CCCO2)o1 (configuration not stated) | i | -0.02 |
| CC(C)(C)NC(=O)C(c1ccc(OCC(N)=O)cc1)N(C(=O)c1cccnc1)C1CC1 (configuration not stated) | i | 0.02 |
| CC(=O)Nc1ccc(N=c2cc([N+](=O)[O-])cc(Cl)n2O)cc1 | i | -1.6 |
| CCOC(=O)c1c(NC(=O)C(C)S(=O)(=O)c2cn(CC)c3ccccc23)sc2c1CCCC2 (configuration not stated) | i | -0.16 |
| Cc1cc(NC(=O)COC(=O)C2CC(=O)N(c3ccccc3)C2)no1 (configuration not stated) | i | -0.32 |
| Cc1cccc(NC(=O)C(CCC(N)=O)NC(=O)OCc2ccccc2)c1 (configuration not stated) | i | -0.01 |
| Cc1ccc(NC(=O)[C@@H]2CCCN2S(=O)(=O)c2ccccc2F)cc1S(=O)(=O)N1CCOCC1 | i | 2.1 |
| CCC(=O)Nc1ccc(C(=O)NNC(=O)COc2cc(C)ccc2C)cc1 | i | -0.11 |
| Cc1cc(Br)ccc1SCC(=O)OCC(=O)NC(C)c1ccccc1 (configuration not stated) | i | 0.84 |
| COC(=O)C(C)NC(=S)N1CCN(c2c(F)cc3c(=O)c(C(=O)O)cn(C4CC4)c3c2OC)CC1C (configuration not stated) | i | 1.1 |
| COc1ccc(-c2nnc3sc(COc4ccccc4)nn23)cc1 | i | -0.41 |
| COc1ccc(OC)c(S(=O)(=O)NCCC(C)C)c1 | i | -1.7 |
| COc1cc(CNCc2ccccc2)c(Br)cc1OC1CCCC1 | i | -4 |
| COc1ccc(C(CC(=O)Nc2cc([N+](=O)[O-])ccc2OC)c2ccccc2)cc1 (configuration not stated) | i | -0.07 |
| CN1CC[C@@]2([C@@]34CCN(C)C3Nc3ccccc34)c3ccccc3NC12 (some centres not stated) | i | -2.5 |
| CCOC(=O)c1ccc2nc(C(F)(F)F)[nH]c(=O)c2c1 | i | -1.1 |
| O=C(O)c1ccc(C2SCC(=O)N2Cc2ccco2)cc1 (configuration not stated) | i | -1.4 |
| O=C(NCC(O)COc1ccc([N+](=O)[O-])cc1)c1ccccc1 (configuration not stated) | i | -1.4 |
| Cn1c(SCc2ccc(Cl)cc2)nnc1C1CC1 | i | -1.1 |
| Cn1nc(-c2ccc(C(=O)N3CCN(Cc4ccccc4)CC3)cc2)c2ccccc2c1=O | i | -0.54 |
| CCc1ccc(NS(=O)(=O)c2ccc3[nH]cc(C(=O)N4CCc5ccccc54)c(=O)c3c2)cc1 | i | -1.1 |
| S=c1[nH]nc(-c2cccnc2)n1Cc1ccccc1 | i | 1.2 |
| Cc1onc(-c2ccccc2)c1C(=O)N/N=C/c1ccc([N+](=O)[O-])c(O)c1 | i | -1.1 |
| CCCCc1c(C)nc(N2CCCC2)[nH]c1=O | i | -0.98 |
| CCN(CC)c1ccc(NC(=O)CCc2nnc3ccc(N4CCCCC4)nn23)c(C)c1 | i | -1.8 |
| CCc1ccc(NC(=S)NC2CC3CCC(C2)N3Cc2ccco2)cc1 (configuration not stated) | i | 0.33 |

Remaining list, next part
| canonical_smiles | KCNQ2 block | KCNQ2 block baseline |
| --- | --- | --- |
| COCCn1c(-c2ccc(OC)cc2)nc2oc3cc(OC)ccc3c(=O)c2c1=O | i | 0.37 |
| CC(C)(C)C(=O)O/N=C(\N)COc1cccc(Cl)c1 | i | 0.74 |
| O=C(CSCc1ccc(F)cc1)Nc1nc2c(s1)CCCC2 | i | 0.33 |
| CC(NC(=O)CN1CCN(c2cccc(Cl)c2)CC1)c1ccccc1 (configuration not stated) | i | 0.61 |
| COc1ccc(NC(=O)/C=C/C(=O)O)c(OC)c1 | i | -0.01 |
| CC(C)C/C(O)=C/c1nc2cc(Cl)ccc2oc1=O | i | 0.16 |
| Cc1ccc(C(C(=O)NC2CCCC2)N(C(=O)c2csnn2)c2cccc(F)c2)o1 (configuration not stated) | i | -1.6 |
| Cn1c(=O)c2c(nc(OCc3cccnc3)n2Cc2ccccc2)n(C)c1=O | i | 1.3 |
| Cc1onc(-c2ccccc2)c1C(=O)N1CCN(S(=O)(=O)c2ccccc2C(F)(F)F)CC1 | i | -0.01 |
| Oc1ccccc1CNCCCNCc1ccccc1O | i | 1.4 |
| Cn1cccc1/C=N/N1CCN(Cc2ccccc2Cl)CC1 | i | 1.7 |
| O=C(CCNC(=O)c1ccc(Br)cc1)Nc1ccccc1N1CCOCC1 | i | -0.85 |
| Cc1cccc(N2CCN(C(=O)CCn3c(=S)[nH]c4cc5c(cc4c3=O)OCO5)CC2C)c1 (configuration not stated) | i | 0.32 |
| O=C(Oc1ccc2c(c1)O/C(=C\c1ccncc1)C2=O)c1cccs1 | i | 0.85 |
| O=C(CSc1ccc(Cl)cc1)Nc1ccc(-c2nc3ccccc3[nH]2)cc1 | i | 2.3 |
| COC(=O)c1cccc(NC(=O)C2C3CCC(C3)C2C(=O)O)c1 (configuration not stated) | i | -1.4 |
| CC1CC(C)(C)NC(C)c2ccccc21 (configuration not stated) | i | 0.86 |
| COC(=O)C1(C)NC(c2ccc(F)cc2)C2C(=O)N(c3ccccc3)C(=O)C21 (configuration not stated) | i | 0.02 |
| COc1ccccc1Oc1ncnc2c1cnn2-c1ccccc1 | i | 2.2 |
| CCOC(=O)c1c(NC(=O)CN2C(=O)NC3(CCCCC3C)C2=O)sc(C(=O)N(C)C)c1C (configuration not stated) | i | 1.7 |
| O=C(Nc1cccc(C(F)(F)F)c1)c1cccc(NS(=O)(=O)c2ccc(Br)c(C(=O)O)c2)c1 | i | -0.01 |
| COc1ccc(C)cc1NC(=O)CN1CCCN(S(=O)(=O)c2ccc(Br)cc2)CC1 | i | -0.34 |
| COc1cccc(S(=O)(=O)Nc2ccc(C(=O)Nc3ccncc3)cc2)c1 | i | 0.58 |
| CCOC(=O)C1=C(c2ccccc2)OC(N)=C(C#N)C1C1CCCCC1 (configuration not stated) | i | -1.7 |
| CCCN(CC(=O)Nc1ccc(C)cc1Br)CC(=O)Nc1ccc(F)c(F)c1F | i | -1.3 |
| Cc1ccc(C(=O)NC(=S)NNC(=O)COc2ccc([N+](=O)[O-])cc2)cc1 | i | -1.3 |
| O=C(CCNC(=O)c1ccc([N+](=O)[O-])cc1)N/N=C/c1ccc(F)cc1 | i | -1.1 |
| CCc1ccc(NCc2cc3c(C)nn(-c4ccccc4)c3[nH]c2=O)cc1 | i | 2.8 |
| Cc1cccc(C)c1OCc1n[nH]c(=S)n1N | i | -1.4 |
| CCOc1ccc(-n2c(-c3ccccc3)c[nH]c2=S)cc1 | i | -1.4 |
| CCCCCCOc1ccc(C(=O)NCCCn2ccnc2)cc1 | i | 2 |
| Brc1cccc(C2Nc3cccc4cccc(c34)N2)c1 | i | 0.07 |
| CCOC(=O)C1(Cc2ccccc2)CCN(Cc2cnn(-c3ccccc3)c2)CC1 | i | 1.4 |
| COc1ccc(-c2cc(C(F)F)n3ncc(C(=O)N4CCc5ccccc5C4)c3n2)cc1 | i | 0.25 |
| CCOc1ccc(S(=O)(=O)Nc2ccc3c(c2)OCO3)c2cccnc12 | i | 1.6 |
| Cc1ccccc1C(=O)c1cccn1CC(=O)NCc1cccc(Cl)c1 | i | -2.1 |
| CN(c1ccccc1)c1nc(N)c([N+](=O)[O-])c(N2CCCCC2)n1 | i | 2.7 |
| Cn1c(=O)c2cc(S(=O)(=O)NC(Cc3ccccc3)C(=O)NCc3ccco3)ccc2n(C)c1=O (configuration not stated) | i | -0.85 |
| CCCc1[nH]nc2c1C(c1ccc(OC)c(CSC3=NCCS3)c1)C(C#N)=C(N)O2 (configuration not stated) | i | -1.6 |
| OC(CNCCNc1ncccc1C(F)(F)F)Cn1ccc2ccccc21 (configuration not stated) | i | 1.8 |
| O=C(C1=C(O)C(=O)N(Cc2ccccc2)C1c1ccncc1)c1ccco1 (configuration not stated) | i | 0.87 |
| c1ccc(C2=Nn3c(nnc3-c3cccs3)SC2)cc1 | i | -0.74 |
| COc1ccc(NC(=O)CCS(=O)(=O)c2ccc(Br)s2)cc1 | i | -1.9 |
| COC(=O)C/C=C/[C@@H](C)[C@@H](/C=N/OCC[C@@H]1C=C[C@H](OC(C)=O)[C@@H](COC(C)=O)O1)NS(=O)(=O)c1ccc(C)cc1 | i | -0.05 |
| C/C(=N/NC(=O)c1ccoc1C)c1ccc(NC(=O)c2ccncc2)cc1 | i | -1.2 |
| O=S(=O)(c1ccc(Br)s1)N1CCC(Cc2ccccc2)CC1 | -9.3* | -0.48* |
| O=C(COC(=O)c1cnccn1)c1ccc2ccccc2c1 | i | -0.91 |
| COc1ccc(N(CC(=O)NCc2ccc(C)cc2)S(=O)(=O)c2ccccc2[N+](=O)[O-])c(OC)c1 | i | 1.6 |
| O=C1c2ccccc2C(=O)N1c1nc(-c2cccs2)cs1 | i | -0.09 |
| Cc1c(NS(=O)(=O)c2cc(C(=O)NCc3ccco3)cc(Cl)c2Cl)c(=O)n(-c2ccccc2)n1C | i | -1.1 |

Further structures.
| canonical_smiles | KCNQ2 block | KCNQ2 block baseline |
| --- | --- | --- |
| O=C(C1CCN(c2ccc(N3CCOCC3)nn2)CC1)N1CCc2ccccc2C1 | i | 1.6 |
| CN1CCN(C(=O)Cn2ncc3c([nH]c4ccccc43)c2=O)CC1 | i | -1 |
| COc1ccccc1-n1c(C)c2c(OC)cccc(=O)c2c1C | i | -0.02 |
| O=C1N(Cc2cccc(Cl)c2)C[C@@H]2C[C@@H](c3cccn3-c3cccnc3)N3CCC[C@@]123 | i | 2.3 |
| Cc1ccc(CNC(=O)CSc2ccc(-c3ccccn3)nn2)cc1 | i | 1.7 |
| CN(C)S(=O)(=O)c1cccc(NC(=O)CSc2nc3ccccc3n2-c2ccccc2)c1 | i | -2.3 |
| Cc1ccccc1Nc1ccc(S(=O)(=O)N2CCOCC2)cc1[N+](=O)[O-] | i | 1.6 |
| CCN(CC)c1nc2cc(C)ccc2cc1/C=C(\C#N)C(N)=O | i | 0.79 |
| O=C(NCc1nnnn1-c1ccc(F)cc1)c1ccc([N+](=O)[O-])o1 | i | 0.7 |
| COc1ccc(C(=O)Nc2nc(-c3ccc(OC)cc3)c(-c3ccc([N+](=O)[O-])cc3)s2)cc1 | i | 0.06 |
| N#C/C(=C\c1ccc(N2CCOCC2)o1)c1ccccc1 | i | 1.9 |
| O=C(O)CC1=C(Nc2ccccc2)C(=O)N(c2ccccc2)C1c1ccc(F)cc1 (configuration not stated) | i | 0.4 |
| Cc1ccc(N2C(=O)CCC2(C(N)=O)c2ccccc2)cc1 (configuration not stated) | i | -1.5 |
| COc1cccc(C(=O)NC(C)c2cccc3ccccc23)c1OC (configuration not stated) | i | 0.31 |
| O=C(CN(Cc1cccs1)C(=O)CNC(=O)c1ccco1)NC1CCCCC1 | i | -0.37 |

Assay outcomes: PubChem BioAssay, Johns Hopkins Ion Channel Center

Only part of the results is shown, so the mix of outcomes need not match the whole.
